Compound activity: PubChem BioAssay, several laboratories
PABP polyA inh: PABP poly(A) RNA binding inhibitors, primary screen, biochemical, fluorescence polarization, uHTS; inhibition, % at 35 µM; actives 1% (n = 290,000);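 active = 50% or more with normal probe brightness, or confirmed in later tests; inconclusive = above 50% with abnormal brightness, or retests that disagree; inactive = below 50% or failed in later tests; about a fifth of its hits are not listed in these tables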;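 also: calls also rest on retests at 20 µM and on dose response follow-up; controls were probe without protein and protein plus probe with vehicle; some compounds called inactive have numbers as strong as hits; many hits fall short of the cut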
Target sequence (P11940 whole entry, looked up): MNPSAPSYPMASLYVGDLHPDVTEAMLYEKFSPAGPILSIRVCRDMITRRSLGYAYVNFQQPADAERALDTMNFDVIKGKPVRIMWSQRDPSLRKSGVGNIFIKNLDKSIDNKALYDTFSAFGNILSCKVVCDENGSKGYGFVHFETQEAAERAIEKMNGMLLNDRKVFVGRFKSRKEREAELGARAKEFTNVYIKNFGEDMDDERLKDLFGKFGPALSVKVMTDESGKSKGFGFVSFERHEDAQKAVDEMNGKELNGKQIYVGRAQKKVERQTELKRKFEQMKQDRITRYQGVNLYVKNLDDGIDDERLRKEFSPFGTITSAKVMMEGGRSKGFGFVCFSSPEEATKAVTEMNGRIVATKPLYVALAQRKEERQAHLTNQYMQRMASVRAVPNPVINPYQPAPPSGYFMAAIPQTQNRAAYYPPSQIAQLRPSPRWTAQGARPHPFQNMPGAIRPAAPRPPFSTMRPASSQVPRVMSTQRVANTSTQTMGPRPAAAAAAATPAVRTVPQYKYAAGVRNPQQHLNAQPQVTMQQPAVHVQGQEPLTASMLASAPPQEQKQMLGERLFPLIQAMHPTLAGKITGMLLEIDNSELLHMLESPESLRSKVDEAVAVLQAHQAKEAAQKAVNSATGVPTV
CSC inhib: cancer stem cell viability inhibitors, primary screen, luminescence. AID 2717, 2010. actives 1.1% (n = 300,000). inhibition, % at 7.5 µM. cancer stem cell-like cells viability;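 active = mean at 75% or more and at least half the replicates too; inconclusive = mean and replicates disagree; tested in HMLE shEcad cells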;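 also: 0% = median of negative and 100% = median of positive control wells; the first replicate is given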
eIF4H FP inh: human eIF4H binding inhibitors, primary screen, translation initiation inhibitor project, biochemical, uHTS, fluorescence polarization; Eukaryotic translation initiation factor 4H (Homo sapiens), Q15056; eIF4H fluorescence polarization binding assay; actives 0.94% (n = 290,000); inhibition, % at 35 µM; AID 2012, 2009;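 active = 50% or more with normal probe brightness, or confirmed in later tests; inconclusive = above 50% with abnormal brightness, or retests that disagree; inactive = below 50% or failed in later tests; about a fifth of its hits are not listed in these tables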;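 also: calls also rest on retests at 20 µM and on dose response follow-up; 0% = protein and probe with vehicle and 100% = probe without protein; strong numbers were not always called active; many hits fall short of the cut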
Rce1 inh: yeast Rce1p protease inhibitors, primary screen, biochemical, fluorescence, cell-free homogeneous | actives 0.27% (n = 290,000) | yeast membranes, quenched prenylated peptide cleavage fluorescence | AID 2563, 2010 | calls only;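 active = fall in fluorescence gain of 50% or more versus controls, with final raw signal at or below 3038400; inconclusive = same 50% fall but final raw signal above 3038400; inactive = fall in fluorescence gain under 50%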;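 also: plate controls were neutral control wells for no effect and wells lacking membranes for full effect; tested at 10 µM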
HIV Env fusion: inhibitors of HIV-1 Env-driven cell-cell fusion, primary screen, HeLa-JRFL effector, CEM21 target cells, luciferase | inhibition, % at 12.3 µM | actives 1.1% (n = 360,000);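 active = mean replicate inhibition score of at least 50 and every replicate individually at or above 50; inconclusive = only one of the two criteria met; inactive = mean below 50 and not all replicates reaching 50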;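 also: 0% = plate neutral controls and 100% = maraviroc near 300 nM; one replicate is shown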
UUG fidelity: modulators of yeast start codon fidelity, primary screen, whole organism, S. cerevisiae, single point, plate reader; actives 0.13% (n = 350,000); activity score, % at 18.7 µM; S. cerevisiae UUG-firefly luciferase reporter, luminescence/redox ratio;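 active = replicate mean at a twofold rise or more, about +100% in these data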;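 also: firefly luciferase made from a UUG start codon reports start codon fidelity; reporter light over untreated wells divided by growth signal over untreated wells; some hits fall short of that in this replicate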
MT1-MMP act inh: blockers of MT1-MMP proenzyme processing, primary screen, HT1080 RFP-PRO-GFP cells, GFP/RFP fluorescence; actives 0.061% (n = 360,000); AID 651647, 2012; GFP/RFP ratio change, % at 20 µM; Matrix metalloproteinase-14 (Homo sapiens), P50281; GFP/RFP ratio fluorescence, overnight; percent of plate control window, DMSO zero;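 active = GFP/RFP ratio change of at least 30% with cell ATP level not reduced by more than half and red fluorescence within 50% of control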; also: strong numbers were not always called active
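Assay system: HT1080 RFP-PRO-GFP cells. Benchmarks: DMSO vehicle wells and RFP-L50D-GFP reporter cell wells. Times: overnight cell settling, then overnight compound exposure, 37 °C, 5% CO2. Compound: 20 µM single dose, 1% DMSO. Read-out basis: GFP/RFP fluorescence ratio.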
MT1-MMP act inh RFP: second read-out of MT1-MMP act inh, no call of its own (marks repeat the call); RFP signal change, %; measured here: RFP expression control read;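 0 = vehicle wells; hits needed this value within 50% of zero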
* hit, by the source's call; i = inactive; ? = inconclusive; . = no result given; & = joins results of further samples.

Compound,PABP polyA inh,CSC inhib,eIF4H FP inh,Rce1 inh,HIV Env fusion,UUG fidelity,MT1-MMP act inh,MT1-MMP act inh RFP
CN(Cc1ccccc1)C(=O)c1ncn(Cc2ccccc2)c1C(=O)N(C)Cc1ccccc1,.,-11,.,.,-10,1,-3,0
COc1ccc(C(=O)NC2CCCc3ccccc32)c(OC)c1OC (stereo not given),3,-5,0,.,15,4,3,3
O=C(c1csc2ccccc12)N1CCCCCC1,6,-13,10,i,.,.,3,8
CCOc1cccc(-c2nc3c(s2)CCc2onc(-c4cccc([N+](=O)[O-])c4)c2-3)c1,.,18,.,i,-10,-7,6,2
COC(=O)C1CCN(S(=O)(=O)Cc2ccccc2Cl)CC1,3,-10,-25,i,-2,-3,1,-1
O=C(c1ccccc1Cl)N(Cc1ccccc1F)N1C(=O)CCCC1=O,5,-8,1,i,0,-15,-9,-5
Cc1ccc(-c2cc(C(=O)N3N=C(C(F)F)CC3(O)C(F)F)c3ccccc3n2)cc1C (stereo not given),0,98*,8,i,-41,-6,3,-7
Cc1ccc(-c2nc3ccc(Cl)cc3n2OC(C)C(=O)O)cc1 (stereo not given),-1,10,6,i,-293,.,3,5
O=C(Nc1ccc(C(=O)O)cc1)/C(=C\c1ccc([N+](=O)[O-])cc1)NC(=O)c1ccco1,.,.,.,.,3,-1,3,2
c1ccc2c(c1)Cn1nnnc1-2,-6,-11,-7,i,.,-8,2,2
Cc1cc([N+](=O)[O-])nn1CCC(=O)NC1CCCCCC1,-3,-11,2,i,19,.,4,5
COc1ccccc1CNC(=O)C(NC(=O)C1CCCCC1)C(C)C (stereo not given),.,-12,.,i,1,-12,0,0

Part of the list above, with values under each structure:
The line under a structure holds: PABP polyA inh | CSC inhib | eIF4H FP inh | Rce1 inh | HIV Env fusion | UUG fidelity | MT1-MMP act inh | MT1-MMP act inh RFP
> CN(Cc1ccccc1)C(=O)c1ncn(Cc2ccccc2)c1C(=O)N(C)Cc1ccccc1
 : . | -11 | . | . | -10 | 1 | -3 | 0
> COc1ccc(C(=O)NC2CCCc3ccccc32)c(OC)c1OC (stereo not given)
 : 3 | -5 | 0 | . | 15 | 4 | 3 | 3
> O=C(c1csc2ccccc12)N1CCCCCC1
 : 6 | -13 | 10 | i | . | . | 3 | 8
> CCOc1cccc(-c2nc3c(s2)CCc2onc(-c4cccc([N+](=O)[O-])c4)c2-3)c1
 : . | 18 | . | i | -10 | -7 | 6 | 2
> COC(=O)C1CCN(S(=O)(=O)Cc2ccccc2Cl)CC1
 : 3 | -10 | -25 | i | -2 | -3 | 1 | -1
> O=C(c1ccccc1Cl)N(Cc1ccccc1F)N1C(=O)CCCC1=O
 : 5 | -8 | 1 | i | 0 | -15 | -9 | -5
> Cc1ccc(-c2cc(C(=O)N3N=C(C(F)F)CC3(O)C(F)F)c3ccccc3n2)cc1C (stereo not given)
 : 0 | 98* | 8 | i | -41 | -6 | 3 | -7
> Cc1ccc(-c2nc3ccc(Cl)cc3n2OC(C)C(=O)O)cc1 (stereo not given)
 : -1 | 10 | 6 | i | -293 | . | 3 | 5
> O=C(Nc1ccc(C(=O)O)cc1)/C(=C\c1ccc([N+](=O)[O-])cc1)NC(=O)c1ccco1
 : . | . | . | . | 3 | -1 | 3 | 2
> c1ccc2c(c1)Cn1nnnc1-2
 : -6 | -11 | -7 | i | . | -8 | 2 | 2
> Cc1cc([N+](=O)[O-])nn1CCC(=O)NC1CCCCCC1
 : -3 | -11 | 2 | i | 19 | . | 4 | 5

Going on with the list.
Compound,PABP polyA inh,CSC inhib,eIF4H FP inh,Rce1 inh,HIV Env fusion,UUG fidelity,MT1-MMP act inh,MT1-MMP act inh RFP
COc1ccc(Nc2ncnc3c2c(C)c(C)n3CCCN(C)C)cc1,0,-11,2,i,-5,-14,-3,-1
CCN(C[C@H]1N[C@@](C)(C(=O)OC)[C@H]2C(=O)N(C)C(=O)[C@@H]12)C(=O)Nc1ccc(Cl)cc1,.,.,.,.,-119,-9,1,0
Cc1ccc(C)c(C(=O)CN2C(=O)c3ccccc3S2(=O)=O)c1,-3,-5,-6,i,.,-10,3,-1
CCn1c(=O)c2ccccc2n(Cc2ccc([N+](=O)[O-])cc2)c1=O,-2,-1,4,i,8,-12,1,2
O=C(OCCC1Oc2cccnc2NC1=O)c1ccc(Cl)cc1 (stereo not given),-8,-13,-4,i,10,-19,0,-3
C#CCOCCOCCOCCNc1nc(N2CCN(C(=O)[C@H](CCCCN)n3cc([C@@H](N)C(C)CC)nn3)CC2)nc(N2CCN(C(=O)[C@H](Cc3cc4ccccc4[nH]3)n3cc([C@@H](N)C(C)CC)nn3)CC2)n1 (stereo not given in full),.,0,.,.,.,19,0,1
CCc1ccc(N2CC(C(=O)OC)CC2=O)cc1 (stereo not given),4,-8,-13,i,-13,.,1,4
CCc1ccc(OCC(=O)O/N=C(\N)c2cccnc2)cc1,8,15,-8,i,-3,-16,1,-6
O=C1NC(c2ccncc2)Nc2sc3c(c21)CCCC3 (stereo not given),13,-4,6,.,.,.,-1,2
COc1cccc(N2[C@@H](CC(=O)O)c3cc(C(F)(F)F)ccc3S2(=O)=O)c1,.,-5,.,i,24,-13,1,2
COCOc1ccc(-c2cc(=O)c3c(O)cc(OCOC)cc3o2)cc1,.,19,.,i,.,3,0,-2
O=C(Nc1ccccc1N1CCOCC1)c1cccc(Oc2ccccc2)c1,9,.,8,i,-4,-13,-3,-2

Compound,PABP polyA inh,CSC inhib,eIF4H FP inh,Rce1 inh,HIV Env fusion,UUG fidelity,MT1-MMP act inh,MT1-MMP act inh RFP
Cc1ccc(Nc2nc3c(c(=O)[nH]2)CCCC3)cc1,10,3,2,i,.,-9,-4,-1
CCN(CC)CCn1c(NC(=O)c2ccc(Cl)cc2)nc2ccccc21,-8,-10,13,i,.,.,6,9
Cc1ccc(/C=C/C(=O)N2CCCN(C(=O)/C=C/c3ccc(C)cc3)CC2)cc1,9,.,-1,i,.,.,1,-1
O=C(c1ccc(Cl)cc1)c1ccccc1C(=O)N1CCOCC1,6,.,7,i,.,.,2,3
Cc1cnc(C)c(N2CCN(Cc3cn(C)nc3-c3cccc(Cl)c3)CC2)n1,4,0,-1,i,-6,.,1,1
CCOC(=O)C1=C(C)N(c2ccccc2)C(=O)/C1=C\c1ccc(O)c(OC)c1,-3,9,6,i,-6,-3,0,-2
CSCCCNC(=S)Nc1ccc(N2CCOCC2)cc1N1CCOCC1,-1,-10,-7,i,7,-23,0,5
CS(=O)(=O)N(CC(=O)O)Cc1cccc(CN(CC(=O)O)S(C)(=O)=O)c1,4,5,-10,i,-4,-12,.,.
COc1ccc([N+](=O)[O-])cc1NC(=O)C1CCCCC1C(=O)O (stereo not given),-11,-6,2,i,.,-25,13,4
Cc1ccc(NC(=O)CSc2nc3ncc(Cl)cc3[nH]2)c(C)c1,-6,18,-25,i,9,-12,0,1
Cn1c(=O)[nH]c(=O)c2c1nc(N1CCCCCC1)n2Cc1cccc2ccccc12,-3,.,-7,i,.,.,-3,-10
CCOC(=O)N1CCN(c2nc(N(c3ccccc3)c3ccccc3)nc(-n3ccnc3)n2)CC1,6,29,-8,i,-1,.,.,.

Compound,PABP polyA inh,CSC inhib,eIF4H FP inh,Rce1 inh,HIV Env fusion,UUG fidelity,MT1-MMP act inh,MT1-MMP act inh RFP
Cc1cc(CN(C)C(=O)c2ccc(OC3CCN(S(=O)(=O)N(C)C)CC3)cc2)n[nH]1,.,-9,.,i,3,-5,3,1
O=C(Nc1ccc(Oc2ccsc2C(=O)O)cc1)c1ccccc1F,13,-12,-5,i,8,-12,0,4
Cc1cc(-c2ccco2)n(CC(=O)O)n1,11,-3,1,i,-6,-14,-7,-1
Cc1ccc(C(=O)Nc2ccc(O)cc2C(=O)O)cc1C,20,-14,1,i,.,-2,1,4
CCCNC(=O)C1(C)CCCN(C(=O)c2ccc(OC)cc2OC)C1 (stereo not given),.,.,.,.,-18,-13,-1,1
Cn1c(CN2CCOCC2)nc2cc(NC(=O)c3ccc(F)cc3)ccc21,0,-4,-5,i,.,-20,-7,-10
NC(=O)C1CCN(c2nc(-c3cccnc3)cs2)CC1,.,-9,.,.,1,4,-9,1
COc1cc(CCC(=O)OCC(=O)Nc2c(F)cccc2F)cc(OC)c1OC,12,-5,3,i,6,1,1,3
CCOc1ccc(CNC(=O)CS(=O)(=O)Cc2nc(-c3ccc(OC)cc3)oc2C)cc1,-9,-10,-3,i,9,-9,6,-6
COc1ccccc1N(CCC#N)C(=S)Nc1ccc(S(=O)(=O)N2CCOCC2)cc1,.,-12,.,.,.,-7,-1,3
O=C(OC1CO[C@H]2O[C@@H]1[C@H](OC(=O)c1ccccc1)[C@H]2OC(=O)c1ccccc1)c1ccccc1 (stereo not given in full),.,-8,.,i,21,-1,5,0
O=C(/C=C1\SC(=O)NC1=O)Nc1ccc(C(=O)O)cc1,5,0,-3,i,-15,.,3,3

Compound,PABP polyA inh,CSC inhib,eIF4H FP inh,Rce1 inh,HIV Env fusion,UUG fidelity,MT1-MMP act inh,MT1-MMP act inh RFP
Cc1c(Cc2ccccc2)c(=O)oc2cc(O)cc(O)c12,-2,?,9,i,2,.,7,1
COc1ccccc1S(=O)(=O)N(C)C[C@H]1OCc2cnnn2CCCC(=O)N([C@H](C)CO)C[C@H]1C,.,.,.,.,-13,5&-10,2,6
CC(=O)c1ccc(NC(=O)N2CCN(c3ccc(C)cc3)C(C)C2)cc1 (stereo not given),2,13,-8,i,-2,.,-4,0
CC1=C(C(=O)Nc2ccccc2)C(c2cc(CN3CCOCC3)cs2)C2=C(CCCC2=O)N1 (stereo not given),0,-8,12,i,-15,.,5,0
Cc1ccc(-c2nc3ccccc3[nH]2)cn1,4,7,1,i,-110,-12,4,-2
CN(C)S(=O)(=O)c1cccc(NC(=S)NCc2ccco2)c1,4,-9,-1,i,23,.,-1,-2
C=CCN1N=C(/C=C/c2ccccc2)CCC1=O,8,.,0,i,-22,.,-2,-2
Cc1ccc(C)c(N(C(=O)Cn2nnc(-c3cccs3)n2)C(C(=O)NC2CCCC2)c2ccncc2)c1 (stereo not given),3,-4,-5,i,14,-15,6,-3
O=C(CSc1n[nH]c(-c2ccncc2)n1)Nc1ccccn1,4,-10,-6,i,.,-8,2,0
Cc1ccc(S(=O)(=O)N2CCCN(S(=O)(=O)c3ccc4ccccc4c3)CC2)cc1,-6,10,3,i,38,3,3,-18
COc1cc2c(cc1NC(=O)COC(=O)/C=C/c1ccccc1)oc1ccccc12,0,40,-18,i,.,.,5,4
Cc1cc(NC(=O)CSc2nc3c(c(=O)n2-c2ccccc2)SC(C)C3)no1 (stereo not given),-13,10,0,i,7,2,1,7

Compound,PABP polyA inh,CSC inhib,eIF4H FP inh,Rce1 inh,HIV Env fusion,UUG fidelity,MT1-MMP act inh,MT1-MMP act inh RFP
CCOc1ccc(NC(=S)NC23CC4CC(CC(C4)C2)C3)cc1,-6,-2,-4,.,0,-20,3,1
O=C(CC1SC(N2CCCCC2)=NC1=O)Nc1cccc(C(=O)Nc2ncccc2O)c1 (stereo not given),.,.,.,i,12,-16,3,-3
CCOc1ccc(CNC(=O)CCC(=O)n2ncc3ccc(Cl)cc32)cc1,-3,-5,-11,i,-45,2,-3,2
CCS(=O)(=O)N1CCC(C(=O)Oc2ccc(C)c(C)c2)CC1,4,-14,-4,i,5,-23,2,0
